Source: PubChem BioAssay (Southern Research Institute)
Mtb H37Rv – Confirmatory growth inhibition assay against Mycobacterium tuberculosis H37Rv, potency (AID 1949); most inactive calls were filed without a number and no value below 0 was filed; 100,000 compounds, 1.6% hits; inhibition, % at 10 µg/mL, or IC50 in µg/mL where a hit was titrated;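 active means confirmed in a dose series; inconclusive means about 50% or more but not retested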;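 further: bacteria grown 7 days with compound before Alamar blue readout; 0% = untreated bacteria and 100% = reference antibiotic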
* = called active by the depositor; i = inactive; ? = inconclusive. Not all compounds are listed. The share of hits here may be higher or lower than overall.

SMILES,Mtb H37Rv
COc1ccccc1CC(=O)Nc1ccc(Cl)c(Cl)c1,4%
Cc1ccc(NC(=O)CNS(=O)(=O)c2ccc(F)cc2)cc1C,i
CCc1ccc2nc3nc(C)cc(C)c3c(N)c2c1,5%
COc1ccc(C2(CNC(=O)c3ccc(N)cc3)CCOCC2)cc1,i
Cc1nc(N2CCN(C(c3ccccc3)c3ccccc3)CC2)[nH]c(=O)c1C,4%
CCOc1ccccc1N1CCN(S(=O)(=O)c2c(C)cc(C)cc2C)CC1,17%
COc1cccc(C(=O)COc2ccc3c(C)cc(=O)oc3c2C)c1,0%
COc1c(Cl)cc(Cl)cc1C(=O)Nc1ccc(N2CCN(S(C)(=O)=O)CC2)cc1,0%
CCc1ccc(-n2c(SCC(=O)Nc3ccccc3F)nnc2-c2ccncc2)cc1,i
O=C(Nc1ccc(-c2noc(/C=C/c3ccccc3)n2)cc1)c1ccc2c(c1)OCO2,i
COc1ccccc1C(=O)Nc1ccc([N+](=O)[O-])cc1O,i
N#CC(C(=O)NCc1ccc2c(c1)OCO2)c1ccccc1 (stereo not drawn),i
Cc1c(Cl)cccc1NC(=O)c1ccc(-c2cc(Cl)ccc2Cl)o1,6%
OCCNCc1cc(Br)ccc1OCc1ccc(F)cc1,i
Nc1nnc(SCC(=O)Nc2nnc(SCc3cccc(Br)c3)s2)s1,i
O=C(Nc1ccccc1C(=O)N1CCCC1)c1ccco1,i
COc1ccc(NC(=O)OCc2ccccc2)cc1,i
O=C(CSc1nnc(CCN2C(=O)c3cccc4cccc(c34)C2=O)n1-c1ccccc1)NCc1cccnc1,i
CN(C)C(=O)Oc1ccc2c(=O)c(Oc3ccccc3Br)coc2c1,6%
CCNc1nc(SCC(N)=O)nc(N2CCOCC2)n1,i
Cc1nnc(Nc2ccc3c(c2)OCO3)[nH]c1=O,i
C=CCN1C(=S)N(c2cccc(C)c2)C2CS(=O)(=O)CC21 (stereo not drawn),i
Cc1ccc(C)c(OCCCC(=O)NCc2ccccc2)c1,7%
CC(=O)c1cccc(NC(=O)COc2ccccc2Cl)c1,i
CCc1ccc(CCC(=O)Nc2ccc(C)c(C)c2)o1,?
CC1=C(C(=O)OCCc2ccccc2)C(c2cccc(Br)c2)C2=C(CCCC2=O)N1 (stereo not drawn),i
Cc1cccc(C(=O)Nc2ccc(Br)cc2C(=O)O)c1,0%
CCn1c(SCC(=O)Nc2ccc(Cl)cc2Cl)nnc1-c1ccccc1C,i
COc1ccc(NC(=O)C(=O)NCc2ccccn2)c(OC)c1,3%
C/C=C(\C)c1nnc(NC(=O)OCC)s1,i
Cn1c(SCC(=O)Nc2ccc(I)cc2)nnc1-c1cc2ccccc2o1,2%
COc1cc(-c2nc3ccccc3c(=O)[nH]2)cc(Cl)c1O,i
CCS(=O)(=O)N1CCN(Cc2cccc(C)c2)CC1,i
COc1ccc(NC(=O)C23CCC(C)(c4nc5ccccc5nc42)C3(C)C)cc1 (stereo not drawn),1%
O=C(NCc1ccc(F)cc1)Nc1cccc([N+](=O)[O-])c1,i
COCCSc1ccccc1C(=O)NCc1ccccn1,i
Cc1ccc(C2CC(=O)C3=C(C2)Nc2ccccc2N(C(=O)C2CC2)C3c2ccco2)cc1 (stereo not drawn),?
O=C(NCc1cccnc1)c1ccccc1-c1ccccc1,i
CCCCNS(=O)(=O)c1ccc(NS(=O)(=O)c2ccccc2)cc1,i
CCOC(=O)c1c(NC(=O)C(CC)Sc2nc(N)cc(=O)[nH]2)sc2c1CCCC2 (stereo not drawn),i
O=C(CN(C1CCCCC1)S(=O)(=O)c1ccc(F)cc1)Nc1cccc(Cl)c1,10%
CCOc1ccc(NC(=S)Nc2ccccc2F)cc1,39%
Cc1nnc(-n2cnc3ccccc32)c2ccccc12,1%
CC(=O)c1ccc(NC(=S)NCCc2cccc(Cl)c2)cc1,?
COCc1nnc(NC(=O)C(C)(C)Oc2ccc(Cl)cc2)s1,6%
O=C(CCC1CCCC1)NCCNC(=O)CCC1CCCC1,i
Cc1ccc(C(=O)Oc2ccc(C(=O)CS(=O)(=O)c3ccc(C)cc3)cc2)cc1,i
COc1ccc(N2C(=O)CC(n3cnc4cc(C)c(C)cc43)C2=O)cc1 (stereo not drawn),i
COCCCNCCCCOc1ccc(Br)cc1Cl,i
Cc1cccc(N2CCN(C(=S)c3ccc(O)cc3)CC2)c1,i

Four entries from above, set out differently:
> CCOc1ccc(NC(=S)Nc2ccccc2F)cc1
- Mtb H37Rv: 39%
> Cc1nnc(-n2cnc3ccccc32)c2ccccc12
- Mtb H37Rv: 1%
> CC(=O)c1ccc(NC(=S)NCCc2cccc(Cl)c2)cc1
- Mtb H37Rv: ?
> COCc1nnc(NC(=O)C(C)(C)Oc2ccc(Cl)cc2)s1
- Mtb H37Rv: 6%

(listing goes on)
SMILES,Mtb H37Rv
COc1ccc(C)cc1NC(=O)c1cc(-c2ccccc2C)nc2ccccc12,7%
CCN(C1CCCCC1)S(=O)(=O)c1cc(F)ccc1OC,i
CC(C)c1ccccc1NC(=S)NC(=O)COc1ccc(Br)cc1,4%
CCOC1=NS(=O)(=O)c2ccccc21,i
O=[N+]([O-])c1ccc(NC(=S)N2CCN(c3ccccc3F)CC2)cc1,5%
O=C(C(c1ccccc1)c1ccccc1)N1CCN(Cc2ccc([N+](=O)[O-])cc2)CC1,i
CC(O)CSc1nc(N)c2c3c(sc2n1)CC(C)CC3 (stereo not drawn),0%
COc1ccccc1C(=O)Nc1ccc(S(=O)(=O)Nc2cccc(C(F)(F)F)c2)cc1,i
Cc1cc(S(=O)(=O)N2CCCC2)ccc1F,i
COC(=O)c1ccccc1NC(=O)CSc1nnc(NC(C)=O)s1,i
FC(F)(F)c1nc(=S)[nH]c2c1CCCC2,i
COc1cc([N+](=O)[O-])ccc1NC(=O)CCN1C(=O)C2C3C=CC(C4CC34)C2C1=O (stereo not drawn),i
Cc1c(Cl)c([N+](=O)[O-])nn1CC(=O)Nc1cc(Cl)ccc1Cl,2%
O=C(NC(=S)Nc1cc(-c2nc3ccccc3[nH]2)ccc1Cl)c1ccc2c(c1)OCO2,i
CC1(C(=O)Nc2ccc3c(c2)OCO3)CC1(Cl)Cl (stereo not drawn),i
N#Cc1cc2c(nc1SCc1ccc(Cl)cc1)CCCC2=O,2%
CCCCn1nnc(NC(=O)CC23CC4CC(CC(C4)C2)C3)n1,i
O=C1CC(Sc2ccccn2)C(=O)N1c1cccc(Cl)c1Cl (stereo not drawn),i
CCOc1ccc(-c2n[nH]c(C)c2-c2ccccc2)c(O)c1C,i
O=C(COc1ccc(Br)cc1)NC(=S)Nc1ccc(Oc2ccccc2)cc1,18%
COc1ccc(C2CC(c3ccccc3)=NN2c2ccc(S(N)(=O)=O)cc2)cc1 (stereo not drawn),13%
CCCc1ccc(OCCCC(=O)NC(C)(C)C)cc1,5%
COc1ccc(NC(=O)c2ccco2)cc1NC(=O)c1c(F)c(F)c(OC)c(F)c1F,i
CC(=O)Oc1ccc(C(=O)NC(C)CCCC(C)C)cc1 (stereo not drawn),i
CS(=O)(=O)N(CC(=O)Nc1ccccc1)c1cccc(F)c1,i
O=C(c1ccccc1NS(=O)(=O)c1ccc(Br)s1)N1CCCC1,i
Cc1c(-c2ccc(Br)cc2)[n+](=O)c(-c2ccccc2)cn1[O-],1%
COc1ccccc1CC(=O)O/N=C(\N)c1ccncc1,i
Cc1c(Cc2ccccc2)sc(NC(=O)c2ccc(C(C)(C)C)cc2)c1C(N)=O,i
COC(=O)C1CC(=O)N(c2ccc(OCc3ccccc3Cl)cc2)C1 (stereo not drawn),?
Cc1ccc(-c2nnc(SCC(=O)Nc3ccc(Cl)c(Cl)c3)o2)cc1,24%
COC(=O)c1c(NC(=O)C2CC2)sc2c1CCCC2,i
COc1ccc(C(=O)N2CCC(C(=O)Nc3cc(C)ccc3C)CC2)cc1,i
CSc1ccccc1NS(=O)(=O)c1ccc2c(c1)OCCO2,i
CC(C)(CO)NCc1c(OCc2ccc(Cl)cc2)ccc2ccccc12,4%
O=C(Nc1ccc(I)cc1C(=O)Nc1ccccc1F)c1ccco1,i
CN(c1ccc(C(=O)N(Cc2ccccc2)Cc2ccccc2)cc1)S(C)(=O)=O,2%
O=[N+]([O-])c1ccc(N2CCCCC2)c(S(=O)(=O)N2CCCCC2)c1,i
Cc1ccc(C(=O)NC(=S)Nc2cccc(C)c2C)cc1Br,4%
COc1cccc(CN2CCN(C(=O)c3cc(-c4ccncc4)nc4ccc(C)cc34)CC2)c1,5%
CCc1ccccc1N1C(=O)c2ccccc2S1(=O)=O,i
COc1cc(S(=O)(=O)NC2CC(C)(C)NC(C)(C)C2)c(OC)cc1Cl,i
COc1ccc(NC(=O)c2ccco2)cc1NC(=O)c1ccccc1Br,i
Oc1c(-c2[nH]ncc2-c2cnn(-c3ccccc3)c2)ccc2c1OCO2,i
CCc1cc(=O)oc2c(C)c(OCc3cc(OC)c(OC)c(OC)c3)ccc12,i
CC1CCN(CC(=O)Nc2ccccc2C(F)(F)F)CC1,i
Cc1nc(SCC(=O)O)c2c(C)c(C)sc2n1,i
COc1ccccc1OCCSc1nnc(-c2ccccc2)n1N,i
COc1ccc(CN2CCN(Cc3ccccc3Cl)CC2)cc1,1%
NC(=O)COc1ccc(C(F)(F)F)cc1[N+](=O)[O-],7%

Later entries.
SMILES,Mtb H37Rv
COc1ccccc1C(=O)Nc1ccccc1-c1nc2ccccc2s1,?
COC(=O)c1ccc(Oc2nc3c(c(=O)n(C)c(=O)n3C)n2CCC(C)C)cc1,1%
O=C(CCN1C(=O)C2C3C=CC(C3)C2C1=O)Oc1ccc2ccccc2c1 (stereo not drawn),4%
COC(=O)c1ccccc1NC(=S)NC(=O)c1cc(I)ccc1Cl,i
CCOc1ccc(NC(=S)Nc2ccc(F)cc2C)cc1,5%
CC(NC(=O)c1cccs1)c1ccc(Br)cc1 (stereo not drawn),i
COc1ccccc1NC(=O)CN1CCC(C)CC1,i
CCOc1ccc2c(c1)sc1nc(=O)n(-c3ccccc3)c(=O)n12,i
C=CCc1ccc(OCCN(C)C)c(OC)c1,i
O=C(CC12CC3CC(CC(C3)C1)C2)NC(=S)Nc1cccc(Cl)c1Cl,7%
Cc1c(C(=O)Nc2nnc(C(F)(F)F)s2)oc2ccccc12,28%
CCOc1cccc(C2Nc3ccccc3NC3=C2C(=O)CC(c2ccc(OC)cc2)C3)c1 (stereo not drawn),5%
O=C(NC(=S)NCc1ccccc1)c1ccc(Br)cc1,i
O=C(CCc1ccc(S(=O)(=O)NCc2ccccc2)cc1)N1CCc2ccccc2C1,3%
CNC(=O)CN(c1cccc(F)c1)S(C)(=O)=O,i
CC1CC(C(F)(F)F)n2ncc(C(=O)O)c2N1 (stereo not drawn),0%
O=C(O)c1ccc(-c2cccc(Cl)c2Cl)o1,i
O=C(Nc1ccc(-c2ccc(NC(=O)c3ccncc3)cc2)cc1)c1ccncc1,i
O=C(CCc1ccc(S(=O)(=O)NCCc2ccccc2)cc1)NCc1ccccn1,i
CC(C)c1ccc2oc(-c3ccc(Cl)c(NC(=O)c4ccc(Br)o4)c3)nc2c1,1%

Two records drawn at random from the list so far:
SMILES,Mtb H37Rv
Cc1c(C(=O)Nc2nnc(C(F)(F)F)s2)oc2ccccc12,28%
O=C(O)c1ccc(-c2cccc(Cl)c2Cl)o1,i

(next part)
SMILES,Mtb H37Rv
COc1ccc2oc(C)c(-c3cnc4ccccn34)c2c1,10%
O=C(CCNc1cccc(F)c1)c1ccccc1,8.2µg/mL*
COc1ccc(N/C(N)=N/c2nc3c(c(=O)[nH]2)CCC3)cc1,i
O=C(NC(=S)Nc1cc(C(F)(F)F)ccc1N1CCCCC1)c1cc2ccccc2o1,i
CC1=C(C(=O)OCc2ccccc2)C(c2ccc(O)c([N+](=O)[O-])c2)C2=C(CC(c3ccccc3)CC2=O)N1 (stereo not drawn),12%
Cc1ccc(SCc2nc(-c3ccccc3)no2)cc1,i
CCn1c(SCC(=O)c2ccc(Cl)cc2Cl)nnc1-c1cccnc1,1%
O=C(NCCC1=CCCCC1)c1sc2ccccc2c1Cl,16%
Cc1ccc(C)c(N(CC(=O)Nc2ccccc2C(=O)NCc2ccccc2)S(C)(=O)=O)c1,i
CC(Sc1nc2ccccc2[nH]1)c1nc2ccccc2[nH]1 (stereo not drawn),i
COc1ccc(OC)c(NC(=S)NC(NC(=O)c2cccc(Cl)c2)C(Cl)(Cl)Cl)c1 (stereo not drawn),10%
CCOc1ccc(C(=S)N2CCCC2)cc1,i
CCc1cc2c(NC(Cc3ccccc3)C(=O)O)ncnc2s1 (stereo not drawn),i
CCC(=O)NC(=S)Nc1ccc(NC(=S)NC(=O)c2ccccc2Br)cc1,i
CCOc1ccc(NC(=O)c2cnc(-c3ccccc3)nc2)cc1,i
CC1CN(S(=O)(=O)c2ccc([N+](=O)[O-])cc2)CC(C)O1 (stereo not drawn),i
Cc1cc(C)cc(NC(=O)C23CCC(C)(C(=O)C2)C3(C)C)c1 (stereo not drawn),i
Cc1ccc(N2C(=O)CC(N3CCC(C(N)=O)CC3)C2=O)cc1 (stereo not drawn),i
